Screening data deposited in PubChem by several laboratories.
T cruzi repl: inhibitors of intracellular T. cruzi growth, primary screen, luminescence, NIH3T3 host cells; T. cruzi beta-gal in NIH3T3, 90 h; AID 1885, 2009; hit rate 1.4% among 300,000; inhibition, % (no concentration beside the values);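 active = mean inhibition across valid replicates above about 55%, limit read from the data; inconclusive = mean below that limit but half or more replicates reach it; inactive = mean below it, under half of replicates reach it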;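 note: signal also drops with host cell toxicity which is not excluded here; 0% = plate median of DMSO wells and 100% = zero luminescence signal; higher percent means less beta-gal luminescence so fewer parasites; stock transfer was 50 nL into about 50 µL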
rRNA inh HTS: reduced GFP signal of wild-type E. coli, primary screen, bacterial rRNA inhibitor project, GFP/RFP fluorescence, OD600, single point. E. coli WT GFP vs humanized-ribosome RFP mutants, 24 h; stronger effect = lower value; DMSO median 0, no signal -100. GFP signal change (wild-type ribosome), % (concentration not given with the values). hit rate 1.6% among 350,000;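 active = significant combined selectivity score with lowered wild-type GFP, culture density cut under 30%, mutant RFP and density less affected; inactive = any of these conditions unmet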; note: one replicate is shown; some compounds called inactive have numbers as strong as hits
B2AR ag: beta2AR agonists driving receptor internalization, primary screen, cell-based, FAP fluorogen, flow cytometry; Am2.2-beta2AR cells; reference of the scale not given here; response, % (test concentration not listed); AID 504454, 2011; Beta-2 adrenergic receptor (Homo sapiens), P07550; hit rate 0.43% among 340,000;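 active = response above a set limit, near 3 SD of response in nonfluorescent compounds, cut at about 42% in these data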;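 note: stock transfer was 100 nL into about 11 µL; a reference agonist was the positive control; negative values mostly stem from fluorescent compounds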
Beta apoptosis: inhibitors of cytokine-induced beta cell apoptosis, primary screen, luminescence. hit rate 0.8% among 300,000. INS-1E cytokine-induced death, ATP luminescence, 48 h; percent of positive-control rescue, neutral wells zero. AID 435005, 2010. protection from apoptosis, % (test concentration not listed);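 active = all replicates at 75% or more, or half of them and the mean; inconclusive = half reach 75% but not the mean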;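 note: 0% = cytokine-treated negative control wells and 100% = positive control rescue; higher means more ATP so stronger rescue from cytokine killing; wells of about 40 µL received 100 nL stock; the first replicate is given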
Bfl-1 A1 inh: caspase 3/7 activation in MEF A1-2A-BIM cells, primary screen, A1 inhibitor project, cell-based, luminescence, HTS | Caspase-Glo 3/7 luminescence, 3 h; percent of clofoctol response, vehicle zero | caspase activation, % (concentration not given with the values) | hit rate 0.066% among 330,000;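 active = over half of replicate activation scores above 10%, or exactly half above 10 with the replicate mean above 10; inconclusive = replicate mean below 10 yet half the replicates above 10; inactive = over half of replicates below 10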;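 note: wells of about 30 µL received 50 nL stock; many hits fall short of the cut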
Calb FLC: C. albicans growth inhibition with fluconazole, primary screen, CaCi-2 strain, Alamar Blue fluorescence; C. albicans CaCi-2 (fluconazole-resistant clinical isolate) + fluconazole, 48 h; growth inhibition, % (concentration not given with the values); hit rate 0.57% among 300,000;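 active = most replicates above 75%; inconclusive = exactly half above 75%; inactive = most below 75%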;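 note: all wells also contain fluconazole at 8 µg/ml as a sub-toxic cotreatment; 0% = median of DMSO wells and 100% = median of geldanamycin control wells; wells of about 8 µL received 7.5 nL stock; the first replicate is given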
ALR H2O2 inh: inhibitors of human ALR sulfhydryl oxidase, primary screen, biochemical, H2O2 detection, HRP-luminol luminescence, single point; hit rate 3.8% among 290,000; FAD-linked sulfhydryl oxidase ALR (Homo sapiens), P55789; inhibition, % (test concentration not listed); purified ALR, DTT oxidation;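 active = mean and each replicate at 75% or more; inconclusive = only one of the two met; inactive = neither met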;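 note: stock transfer was 7.5 nL into about 7.5 µL; 0% = neutral wells and 100% = wells with inactivated enzyme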
LANA-H2B inh: blockers of LANA interaction with H2A/H2B – biochemical, FP readout, HTS, primary screen | Protein LANA1 (Human herpesvirus 8 type P (isolate GK18)), Q9QR71 | cell-free LANA-H2A/H2B peptide, fluorescence polarization | hit rate 0.6% among 320,000 | inhibition, % (concentration not given with the values); in the data active = inhibition mostly above about 10%, no sharp cut-off; inactive = mostly below about 6.7%;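 note: stock transfer was 7.5 nL into about 10 µL; 0% = median of vehicle wells and 100% = median of positive control wells; one replicate is shown; the record names a cut of 25% in any replicate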
Target sequence (Q9QR71 whole entry, looked up): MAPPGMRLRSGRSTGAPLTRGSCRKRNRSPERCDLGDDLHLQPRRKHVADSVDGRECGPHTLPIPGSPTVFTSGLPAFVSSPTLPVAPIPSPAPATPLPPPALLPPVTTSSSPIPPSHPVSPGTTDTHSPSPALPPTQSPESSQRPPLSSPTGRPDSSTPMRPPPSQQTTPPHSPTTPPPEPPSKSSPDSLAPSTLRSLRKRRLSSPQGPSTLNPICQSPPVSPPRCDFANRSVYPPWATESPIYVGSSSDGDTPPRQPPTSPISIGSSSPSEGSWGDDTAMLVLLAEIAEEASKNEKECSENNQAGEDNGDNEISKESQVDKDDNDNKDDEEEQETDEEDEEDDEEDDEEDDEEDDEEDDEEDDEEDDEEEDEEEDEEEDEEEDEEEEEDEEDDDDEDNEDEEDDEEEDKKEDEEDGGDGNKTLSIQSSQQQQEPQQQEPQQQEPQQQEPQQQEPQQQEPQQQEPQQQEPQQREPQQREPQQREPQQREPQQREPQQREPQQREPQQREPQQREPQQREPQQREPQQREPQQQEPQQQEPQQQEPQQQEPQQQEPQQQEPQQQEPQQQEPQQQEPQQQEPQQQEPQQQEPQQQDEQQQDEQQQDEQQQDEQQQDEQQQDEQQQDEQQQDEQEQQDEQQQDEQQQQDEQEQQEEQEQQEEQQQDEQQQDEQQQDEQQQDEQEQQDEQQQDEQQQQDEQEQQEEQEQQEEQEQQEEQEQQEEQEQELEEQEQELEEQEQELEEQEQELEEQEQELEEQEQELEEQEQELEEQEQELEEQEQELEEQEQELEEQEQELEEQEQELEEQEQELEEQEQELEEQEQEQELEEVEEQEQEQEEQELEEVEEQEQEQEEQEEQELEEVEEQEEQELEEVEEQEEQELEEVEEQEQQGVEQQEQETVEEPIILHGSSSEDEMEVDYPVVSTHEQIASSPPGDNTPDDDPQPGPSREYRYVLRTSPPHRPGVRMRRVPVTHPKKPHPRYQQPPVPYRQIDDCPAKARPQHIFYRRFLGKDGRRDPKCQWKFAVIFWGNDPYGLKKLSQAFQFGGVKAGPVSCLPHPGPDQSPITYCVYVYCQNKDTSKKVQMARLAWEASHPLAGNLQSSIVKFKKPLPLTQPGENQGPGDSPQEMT
rRNA inh HTS OD600: second read-out of rRNA inh HTS, no call of its own (marks repeat the call); OD600 change, %; measured here: OD600 growth;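 optical density of the mix in the first replicate; 0 = DMSO median and -100 = no signal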
rRNA inh HTS RFP: also measured in rRNA inh HTS; calls as there; RFP signal change, %; measured here: RFP humanized mutant strains;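 first replicate; 0 = DMSO median and -100 = no signal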
Active calls of the source: *; ? = inconclusive; . = no result given.

SMILES	T cruzi repl	rRNA inh HTS	rRNA inh HTS OD600	rRNA inh HTS RFP	B2AR ag	Beta apoptosis	Bfl-1 A1 inh	Calb FLC	ALR H2O2 inh	LANA-H2B inh
CCC(C)[C@H](N)c1nnc(SCC(=O)c2ccc(Cl)cc2)o1 (stereo partly drawn)	-11	.	.	.	3	-1	0.2	22	98*	-7.8
COc1ccc(N2C(=O)CSC23C(=O)Nc2ccccc23)cc1OC (stereo not drawn)	-1	.	.	.	6	5	0.7	-5	2	-1.2
O=C(O)COc1ccc(/C=N/n2cnc3scc(-c4cccs4)c3c2=O)cc1	.	.	.	.	1	4	1.8	.	68	-7.0
COCc1cc(C)c2c(N)c(C#N)sc2n1	-7	.	.	.	-6	-5	-0.3	14	.	-7.6
Cc1ccc(OCCOCCN2CCN(C)CC2)c(C(C)(C)C)c1	51	-5	-6	2.1	13	-1	-0.2	-13	-3	-1.6
CCOc1ncccc1C(=O)N(C)CC(=O)Nc1ccc(F)cc1	1	8	5	-1.9	0	-3	0.0	3	-22	-1.1
Cc1noc(C)c1S(=O)(=O)N1CCC(C(=O)NCCN2CCC(C)CC2)CC1	-9	.	.	.	4	-5	0.5	-12	0	1.7
CSc1ccccc1NC(=O)c1cc(-c2cccs2)on1	10	.	.	.	0	0	-1.7	-12	-4	2.7
O=C(CN1CCN(c2ccccn2)CC1)Nc1ccccc1	-10	.	.	.	1	-2	0.0	4	0	4.4
Cc1c(C(=O)O)cccc1-c1ccc(C=O)o1	-5	.	.	.	-9	0	-1.5	-2	3	3.2
O=C(CCSCCC(=O)NCc1ccccc1)NCc1ccccc1	-33	.	.	.	6	2	0.7	33	-2	1.4
COC(=O)C1=NNC2C(=O)N(c3ccc(C)cc3)C(=O)C12 (stereo not drawn)	-1	5	-2	1.0	5	3	-0.4	7	-10	-2.5
O=C(OCc1c(-c2ccccc2)ncc2ccccc12)c1cccc(Br)c1	.	4	4	-1.7	-7	7	-1.7	.	-10	5.4
CS(=O)(=O)N(CC(=O)NCCSCc1ccccc1)c1ccccc1F	-11	3	12	-1.1	-6	.	0.0	22	-3	-2.2
COc1ccc(C(=O)NC2CCN(C(=O)NC3CCCCC3)CC2)cc1	3	.	.	.	4	3	1.0	-20	-8	-0.5
FC(F)(F)c1ccc(Oc2ccc3cc(Br)ccc3c2)nc1	-25	10	6	-1.1	1	5	0.7	-6	-7	-2.1
O=C(c1ccc(Br)cc1)N1CCN(c2ncccn2)CC1	-11	-7	-4	-0.8	-7	.	0.0	11	-4	5.2
O=C(NNC(=O)c1cc2ccccc2o1)c1ccc(Cl)cc1	16	18	6	23	13	-3	0.6	2	-18	-0.8
CCOC(=O)C1CCN(C(=O)CC(NS(=O)(=O)c2ccc(OC)cc2)C(C)C)CC1 (stereo not drawn)	-4	.	.	.	-3	-3	0.1	-4	-6	5.4
O=C(NCc1n[nH]c(=S)n1-c1ccc([N+](=O)[O-])cc1)c1ccc(S(=O)(=O)N2CCOCC2)cc1	-7	3	12	0.2	-1	-2	-0.5	25	.	-3.0
O=C(Nc1ccc(Cl)cc1)Nc1ccc(Cl)c(Cl)c1	.	-57	-83	-33	.	113*	0.1	.	0	-3.8
O=[N+]([O-])c1cc(/C=N/O)ccc1N1CCCC1	-1	.	.	.	0	0	0.6	?	92*	-6.5
COc1ccc(N2CCN(Cc3cc(=O)oc4cc(C)c(Cl)c(C)c34)CC2)cc1	4	.	.	.	0	-2	-0.3	5	-10	-3.7
COc1cccc(NC(=S)N(CCc2ccc(OC)c(OC)c2)Cc2ccccn2)c1	-6	-8	-6	-2.3	0	-6	1.1	1	.	-1.0
Cc1ccc(OCC(O)CN2C(=O)NC(C)(C)C2=O)c(C)c1 (stereo not drawn)	-15	10	3	-0.6	18	-14	0.8	-20	.	-1.9

Following part.
SMILES	T cruzi repl	rRNA inh HTS	rRNA inh HTS OD600	rRNA inh HTS RFP	B2AR ag	Beta apoptosis	Bfl-1 A1 inh	Calb FLC	ALR H2O2 inh	LANA-H2B inh
Cc1ccc(NC(=O)CCc2nnc3ccc(NCc4ccco4)nn23)cc1	-5	6	5	2.1	2	.	-0.7	-2	16	0.3
CCCCC(C(=O)NC1CCCC1)N(Cc1ccccc1)C(=O)c1snc(C(N)=O)c1N (stereo not drawn)	6	0	6	-0.2	-3	7	2.0	11	-3	1.1
O=C(NCc1nc2ccccc2[nH]1)C1=C[C@H](c2ccc3c(c2)OCO3)C[C@H](OCCCCO)O1	-16	4	-8	-1.2	3	-2	0.3	2	-3	-5.6
COC(=O)c1c(-c2ccc(OC)cc2)sc2ccc(OC)cc12	.	-12	-6	-0.2	-3	-11	0.0	.	-5	-0.3
OCCNCCSc1nc(C2CCCCC2)n(-c2ccccc2Cl)n1	-1	3	-2	-5.3	-1	-8	-0.5	-14	-11	-0.4
CC(C)C[C@]1(c2ccccc2)ON(c2ccccc2C(F)(F)F)C1=O	.	10	7	1.9	4	-11	-0.4	.	-10	7.0
COCCNCc1ccc(Cl)cc1Cl	-4	-7	10	0.0	1	-2	-0.1	-3	-16	3.0
Cc1occc1C(=O)O/N=C(\N)c1ccccc1	6	.	.	.	-4	42	-7.7	-4	-8	1.5
O=C(CN1CCN(S(=O)(=O)c2ccccc2)CC1)Nc1ccc(N2CCOCC2)cc1	-15	.	.	.	0	-8	0.2	2	47	5.0
O=C(c1cc2ccccc2o1)n1nnc2ccccc21	-9	.	.	.	0	-5	0.4	4	.	4.1
Cc1cc2oc(=O)cc(Cn3ccnc3)c2cc1Cl	12	2	3	3.0	-5	2	-0.9	-6	-5	-5.9
COc1ccccc1NC(=S)c1ccccc1	-12	.	.	.	-2	-4	0.0	-7	.	1.7
CCn1ccnc1CN(C)Cc1c(C(=O)N2C[C@@H](C)O[C@@H](C)C2)nc2ccc(Cl)cn12	-3	11	3	2.7	2	1	0.5	-6	-9	-4.0
Cc1cc(C)n(CC(=O)NNC(=O)CCCOc2ccc(Cl)cc2C)n1	6	9	9	3.6	2	-2	1.1	1	-1	-2.1
O=C(NC1CCCC1)C1CCN(C(=O)NCc2ccccc2)CC1	-12	9	-8	-4.7	2	-8	-1.6	6	.	-6.2
CNC(=O)Nc1cccc(-c2cc(-c3c(Cl)cccc3Cl)no2)c1	35	.	.	.	-1	2	0.8	-12	-16	-3.6
Cc1cc2c(c(=O)o1)C1(C(=O)N(C)c3ccccc31)C(C#N)=C(N)O2 (stereo not drawn)	0	.	.	.	3	-5	-0.3	6	-1	-6.2
CC(C)OC(=O)CC1C(=O)NCCN1C(=S)NC(=O)c1ccc(F)cc1 (stereo not drawn)	-17	5	2	0.3	6	-1	0.2	-3	.	2.1
COC(=O)c1cccc(NC(=O)c2ccc3c(c2)C(=O)N(C(C)(C)C)C3=O)c1	7	-5	-1	0.1	4	.	-0.4	5	.	5.1
Cc1ccccc1-c1nc(CS(=O)(=O)CC(=O)NCCN2CCOCC2)c(C)o1	-3	-4	0	-1.2	-8	-4	0.2	-2	22	1.6
CSCC[C@H](NC(=O)[C@@H]1CSC2c3ccccc3C(=O)N21)C(=O)NC1CCCC1 (stereo partly drawn)	-1	18	1	0.8	-10	-5	0.9	-2	-2	-5.9
COc1ccccc1/C=C/C(=O)NC(=S)N1CCOCC1	-11	6	-4	-0.1	-6	-15	-3.3	-4	2	-5.5
CCN(CC(=O)Nc1ccc(NC(C)=O)cc1)C(=O)C1COc2ccccc2O1 (stereo not drawn)	1	1	-1	3.0	1	-3	0.8	-1	-5	-3.1
COCCNC(=O)CSc1nnc(-c2ccc(C)cc2)c(-c2ccc(C)cc2)n1	46	-36	-60	-3.5	-9	2	0.6	40	.	0.4
O=c1nc(-c2ccccc2)n(-c2ccccc2)[nH]1	3	.	.	.	17	-1	-0.3	?	.	4.1

(more compounds)
SMILES	T cruzi repl	rRNA inh HTS	rRNA inh HTS OD600	rRNA inh HTS RFP	B2AR ag	Beta apoptosis	Bfl-1 A1 inh	Calb FLC	ALR H2O2 inh	LANA-H2B inh
CCn1c(C)cc(C)c(C#N)c1=O	-2	13	3	0.1	4	-5	1.1	-1	0	0.1
CSc1cccc(NC(=S)N(CCN(C)C)C(C)c2ccccn2)c1 (stereo not drawn)	17	-20	-19	0.2	-12	1	-0.1	7	8	-0.2
O=[N+]([O-])c1cc(Br)cc(C=Nc2ccc3c(c2)OCO3)c1O	-7	-30*	-2.7*	-1.1*	10	7	-0.5	20	.	-1.0
CCN1C(=O)[C@H]2[C@@H](c3ccc(OC)cc3)N3C(=O)CN(CCOC)C(=O)[C@@]3(Cc3ccccc3)[C@H]2C1=O	7	3	2	-5.4	-6	-4	0.7	-8	-11	-1.7
CCc1ccc(NC(=O)CC2C(=O)N(c3cccc(C)c3)C(=O)N2C2CC2)cc1 (stereo not drawn)	9	-5	-1	1.0	7	3	0.1	2	-2	-0.7
O=C1CN(S(=O)(=O)c2cc(C(F)(F)F)ccc2Cl)CCN1	.	-1	1	-1.2	-7	-8	-1.2	.	.	-3.2
CCn1c(-c2cccn(Cc3ccccc3)c2=O)n[nH]c1=S	-1	7	6	1.1	-7	-2	0.4	-10	12	2.0
Cc1ccc(SCc2[nH]nc3c2C(c2cccnc2)C(C#N)=C(N)O3)cc1 (stereo not drawn)	-3	0	-9	-3.1	4	-6	1.0	18	18	3.5
O=C(NN1C(=O)C2C3C=CC(C3)C2C1=O)c1ccccc1 (stereo not drawn)	-24	4	3	-1.7	-8	-7	1.2	-3	-2	-6.1
CCn1c2ccc(C)cc2c2n[nH]c(=S)nc21	-5	2	0	-3.8	-3	-2	-0.6	9	51	-6.1
O=C1CSc2ccc(C(=O)NCc3ccccn3)cc2N1	.	8	3	-0.5	-2	0	-0.3	.	-5	2.5
Cc1ccccc1NC(=O)CN1C(=O)CSc2ccc(S(=O)(=O)N3CCCC3)cc21	2	4	-1	1.2	-2	-4	0.9	-11	1	3.5
Cc1sc2nc(SCc3nnc(-c4cccs4)o3)n(C3CCCC3)c(=O)c2c1C	30	.	.	.	-1	.	-0.7	-1	4	-1.9
COc1ccc(CC(=O)Nc2cc(S(=O)(=O)Nc3ccc(OC)cc3)ccc2OC)cc1	.	-18*	-6.6*	3.5*	22	6	0.0	.	3	-11
COC(=O)c1sccc1NC(=S)Nc1cc(OC)ccc1OC	-14	7	3	14	3	-4	0.2	-5	-19	3.4
NS(=O)(=O)c1ccc(CCNC(=O)NC23CC4CC(CC(C4)C2)C3)cc1	6	0	6	-3.4	3	0	0.4	6	-1	1.3
COc1cc(OC)cc(-c2nnc(SCC(=O)Nc3cccc(C(=O)O)c3)s2)c1	3	6	7	2.6	1	-3	-1.5	-15	-1	-3.1

A portion of the library. The share of hits here may be higher or lower than overall.
